Screening data: PubChem BioAssay, National Center for Advancing Translational Sciences (NCATS)
HSD17B inhib – blocks hydroxysteroid 17-beta dehydrogenase activity; actives 7.6% (n = 75,000); Potency, µM (titrated, usually from 57.1 µM), without a hit: at the highest dose activity change, negative = inhibition, actives largely listed as inhibitors; recombinant HSD17B10, NADH fluorescence kinetic; many of its hits are not listed in these tables; Q99714; active = well fitted inhibition curve with a large enough effect; inconclusive = small, poorly fitted or top-dose-only effect; inactive = no such curve, though single readings can be large or run the other way;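 also: the protocol describes HADH2 (HSD17B10) and not the HSD17B4 of the title; nearly all actives have a fitted effect of over 70% in size; most hits overshoot -100% by far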
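His-tagged E. coli-expressed HADH2 at 20 nM in 100 mM Tris-HCl pH 9.0 with 0.01 % Tween-20, preincubated 15 min with compound at room temperature. Reaction with 1 mM NAD+ and 90 uM beta-hydroxybutyryl coenzyme A; NADH fluorescence (360/450 nm) read kinetically over 4 min, last minus first point.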
Starred values were filed as active, the others as inactive; ? = inconclusive; & = joins results of further samples; [ ] = remark or other dose. % is scaled to controls: 0 for no effect and ±100 for the full control effect; potency is read from the fitted curve at half-maximal effect. Not all compounds are listed; the hit share may differ from the screen's.

cpd	smiles	HSD17B inhib
1	Cc1cc(O)c2c(c1)C(=O)c1cccc(O)c1C2=O	-23%
2	C[C@@H](Cc1cccc(C(F)(F)F)c1)NCCOC(=O)c1ccccc1	-3%[25.6 µM]
3	CCOC(=O)Nc1ccc2c(c1)N(C(=O)CCN1CCOCC1)c1ccccc1S2	0%
4	CC1(C)OC2CC(=O)OC[C@@]23C1CC(=O)[C@]1(C)C3CC[C@@]2(C)C(c3ccoc3)OC(=O)C3O[C@@]321 (some centres undefined)	8%
5	CC[C@@]12CCCN3CCc4c(n(c5ccccc45)[C@](O)(C(=O)OC)C1)C32 (some centres undefined)	9%
6	CC1(C)Oc2ccc(C#N)cc2[C@H](N2CCCC2=O)[C@H]1O	-6%&7%
7	COc1cc(C)nc(-n2nc(C)cc2OC)n1	-3%[25.6 µM]
8	CC(C)[C@@H]1C(=O)N(S(C)(=O)=O)[C@H]2CCN(C(=O)/C=C\CN3CCCCC3)[C@@H]12	17%
9	CCC(Cc1c(I)cc(I)c(N)c1I)C(=O)O (centres undefined)	-18%
10	COc1cc(C(=O)NCCCCCC(=O)O)cc(OC)c1OC	2%

(list continues)
cpd	smiles	HSD17B inhib
11	NC(=O)c1ccc([N+](=O)[O-])cc1Cl	2%
12	Cc1ccsc1/C=C/C1=NCCCN1C	-6%
13	CCN(CC)CCOC(=O)C(c1ccccc1)c1ccccc1	5%
14	Oc1ccc([C@@H]2CNCCc3c2cc(O)c(O)c3Cl)cc1	?
15	COc1ccc(-c2oc3c(CC=C(C)C)c(O[C@H]4OC(CO)C(O)C(O)C4O)cc(O)c3c(=O)c2O[C@@H]2OC(C)C(O)C(O)C2O)cc1 (some centres undefined)	-2%
16	CCN(CCCCOC(=O)c1ccc(OC)c(OC)c1)[C@@H](C)Cc1ccc(OC)cc1	2%[25.6 µM]
17	CCCc1cc(C(N)=S)ccn1	4%&-4%
18	Nc1cc(=O)[nH]c(N)n1	8%
19	CN(C)CCOC(=O)C(c1ccccc1)C1(O)CCCC1 (centres undefined)	3%
20	C[C@H]1C[C@@H]2[C@H]3CCC4=CC(=O)C=C[C@@]4(C)[C@@]3(Cl)[C@@H](O)C[C@]2(C)[C@]1(OC(=O)c1ccco1)C(=O)CCl	-5%[25.6 µM]

(next part)
cpd	smiles	HSD17B inhib
21	O=C(O)[C@@H]1[C@@H]2C[C@H]3c4[nH]c5ccccc5c4CCN3C[C@@H]2CC[C@@H]1O	13µM*
22	COc1ccc([C@@H]2CNC(=O)C2)cc1OC1CCCC1	-6%
23	OCC(O)CN1CCN(c2ccccc2)CC1 (centres undefined)	0%
24	COc1c(O)cc2c(c1O)[C@@H]1O[C@@H](CO)[C@@H](O)[C@@H](O)[C@@H]1OC2=O	2%[25.6 µM]
25	Cc1cn([C@H]2C[C@H](O)[C@@H](CO)O2)c(=O)[nH]c1=O	2%
26	Cc1nc2c([nH]1)c(=O)n(C)c(=O)n2Cc1ccco1	8%
27	O=C1c2ccccc2C(=O)c2c(O)c(O)cc(O)c21	7.9µM*
28	CN1CCN(CCCN2c3ccccc3Sc3ccc(S(=O)(=O)N(C)C)cc32)CC1	1%[25.6 µM]
29	NC(=O)c1ccc(-c2nc(-c3ccc4c(c3)OCO4)c(-c3ccccn3)[nH]2)cc1	32µM*
30	O=C(O)CCCCCCCC(=O)O	3%&5%
31	CN(C)CCO[C@](C)(c1ccccc1)c1ccccn1	2%[25.6 µM]
32	CN1CCN(c2c(F)cc3c(=O)c(C(=O)O)cn4c3c2SCC4)CC1	25µM*
33	C[C@@H]1[C@H](C)CC[C@@]2(C(=O)O[C@H]3O[C@@H](CO[C@H]4O[C@@H](CO)[C@@H](O[C@H]5O[C@@H](C)[C@@H](O)[C@@H](O)[C@@H]5O)[C@@H](O)[C@@H]4O)[C@@H](O)[C@@H](O)[C@@H]3O)CC[C@]3(C)C(=CC[C@H]4[C@@]5(C)C[C@@H](O)[C@@H](O)[C@](C)(CO)[C@@H]5CC[C@@]43C)[C@@H]12	3%[25.6 µM]

Quoted from above: compounds 20–33
cpd	smiles	HSD17B inhib
20	C[C@H]1C[C@@H]2[C@H]3CCC4=CC(=O)C=C[C@@]4(C)[C@@]3(Cl)[C@@H](O)C[C@]2(C)[C@]1(OC(=O)c1ccco1)C(=O)CCl	-5%[25.6 µM]
21	O=C(O)[C@@H]1[C@@H]2C[C@H]3c4[nH]c5ccccc5c4CCN3C[C@@H]2CC[C@@H]1O	13µM*
22	COc1ccc([C@@H]2CNC(=O)C2)cc1OC1CCCC1	-6%
23	OCC(O)CN1CCN(c2ccccc2)CC1 (centres undefined)	0%
24	COc1c(O)cc2c(c1O)[C@@H]1O[C@@H](CO)[C@@H](O)[C@@H](O)[C@@H]1OC2=O	2%[25.6 µM]
25	Cc1cn([C@H]2C[C@H](O)[C@@H](CO)O2)c(=O)[nH]c1=O	2%
26	Cc1nc2c([nH]1)c(=O)n(C)c(=O)n2Cc1ccco1	8%
27	O=C1c2ccccc2C(=O)c2c(O)c(O)cc(O)c21	7.9µM*
28	CN1CCN(CCCN2c3ccccc3Sc3ccc(S(=O)(=O)N(C)C)cc32)CC1	1%[25.6 µM]
29	NC(=O)c1ccc(-c2nc(-c3ccc4c(c3)OCO4)c(-c3ccccn3)[nH]2)cc1	32µM*
30	O=C(O)CCCCCCCC(=O)O	3%&5%
31	CN(C)CCO[C@](C)(c1ccccc1)c1ccccn1	2%[25.6 µM]
32	CN1CCN(c2c(F)cc3c(=O)c(C(=O)O)cn4c3c2SCC4)CC1	25µM*
33	C[C@@H]1[C@H](C)CC[C@@]2(C(=O)O[C@H]3O[C@@H](CO[C@H]4O[C@@H](CO)[C@@H](O[C@H]5O[C@@H](C)[C@@H](O)[C@@H](O)[C@@H]5O)[C@@H](O)[C@@H]4O)[C@@H](O)[C@@H](O)[C@@H]3O)CC[C@]3(C)C(=CC[C@H]4[C@@]5(C)C[C@@H](O)[C@@H](O)[C@](C)(CO)[C@@H]5CC[C@@]43C)[C@@H]12	3%[25.6 µM]
